# Resorufin fluor = resorufin region autofluorescence. hit rate 0.04% among 59,000. AID 588. Compound fluorescence, resorufin region 547/598 nm, buffer; active compounds read high. max dye-equivalent concentration, M; active = above 10 nM dye equivalent; inconclusive = 1 to 10 nM; inactive = 1 nM or less; a few of its hits are not listed in these tables; further: highest value over a series up to 38 µM
#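 Intrinsic fluorescence profiled in the resorufin window (ex 547 nm, em 598 nm) after 15 min at room temperature in pH 8.0 Tris buffer (100 mM); responses normalized against a six-point resorufin standard series as dye-equivalent concentration.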
# A488 fluor = A488 region autofluorescence; max dye equivalency, M; compound autofluorescence, A488 spectral region, dye equivalency; active compounds read high; hit rate 0.1% among 59,000; active = above 10 nM dye equivalent; inconclusive = 1 to 10 nM; inactive = 1 nM or less; about half of its hits are not listed in these tables;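 further: highest value over a series up to 38 µM; compound alone in buffer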
#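 Autofluorescence read at ex 480/em 540 nm after 15 min RT in 100 mM Tris pH 8.0; compound signal normalized to A488 standard series on each plate, reported as dye-equivalent concentration at each test concentration.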
# TSHR ag = TSH receptor (human) agonism | Potency, µM (highest dose often 57.1 µM), without a hit: at the highest dose activation, most hits filed as activators | P16473 | HEK293-CNG-TSHR cells (CNG channel as cAMP sensor), membrane potential dye, cAMP | hit rate 0.48% among 73,000; active = well fitted activation curve of enough size with the parental cells flat; inconclusive = any curve in the parental cells; inactive = parental cells flat and receptor cells flat or falling; further: potency means the concentration at half of the fitted maximal effect; % of control where 0% means no effect; weak receptor curves with flat parental cells got no call and are not listed
# Target sequence (P16473 whole entry, looked up): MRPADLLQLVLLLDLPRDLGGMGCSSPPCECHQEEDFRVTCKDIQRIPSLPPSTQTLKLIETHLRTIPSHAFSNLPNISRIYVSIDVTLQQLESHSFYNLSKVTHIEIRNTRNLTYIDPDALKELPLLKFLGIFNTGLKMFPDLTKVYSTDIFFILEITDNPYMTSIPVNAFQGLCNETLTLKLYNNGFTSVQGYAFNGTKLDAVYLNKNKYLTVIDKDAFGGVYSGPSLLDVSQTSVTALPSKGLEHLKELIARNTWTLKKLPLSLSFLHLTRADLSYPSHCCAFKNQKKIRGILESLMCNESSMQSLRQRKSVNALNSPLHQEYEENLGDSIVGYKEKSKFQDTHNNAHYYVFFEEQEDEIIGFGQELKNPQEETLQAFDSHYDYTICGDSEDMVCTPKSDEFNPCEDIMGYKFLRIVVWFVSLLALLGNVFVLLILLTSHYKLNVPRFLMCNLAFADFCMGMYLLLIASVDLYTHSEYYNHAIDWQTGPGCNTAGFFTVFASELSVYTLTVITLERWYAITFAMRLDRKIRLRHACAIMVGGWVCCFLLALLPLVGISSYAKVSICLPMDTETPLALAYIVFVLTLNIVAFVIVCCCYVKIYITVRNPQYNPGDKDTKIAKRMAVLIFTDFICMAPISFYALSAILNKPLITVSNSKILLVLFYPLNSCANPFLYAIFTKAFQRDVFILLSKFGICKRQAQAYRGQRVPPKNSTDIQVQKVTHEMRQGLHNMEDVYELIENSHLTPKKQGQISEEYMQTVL
#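 HEK 293 cells stably expressing TSHR and a cAMP-gated CNG channel; parental CNG-only cells as counterscreen. Cells preloaded 60 min with membrane potential dye plus 100 uM RO 20-1724, then compound 30 min; fluorescence read at 590 nm.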
# A647 fluor = compound autofluorescence in A647 spectral region; 59,000 tested, under 10 active; Compound fluorescence, A647 channel (570/671 nm), Tris buffer; max dye-equivalent concentration, M; active means above 1 µM dye equivalent; inconclusive means 0.1 to 1 µM; inactive means 0.1 µM or less;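 further: values scaled relative to a standard on each plate; highest value over a series up to 38 µM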
#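 Compound fluorescence was measured in 100 mM Tris buffer, pH 8.0, after 15 min at room temperature, using 570 nm excitation and 671 nm emission filters. Signal was normalized to a per-plate Alexa 647 standard curve and expressed as dye-equivalent concentration at each compound concentration.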
# AID923 = qHTS Assay for Allosteric/Competitive Inhibitors of Caspase-1: Spectroscopic Profiling in AFC Spectral Region; Potency, µM (doses to about 57.5 µM), inactives show at the highest dose fluorescence increase, usual class: activators; compound fluorescence, AFC spectral region (405/520 nm); almost no hit is shown here; hit rate 1.1% among 75,000; active means well fitted activation curve with a large enough effect; inconclusive means small, poorly fitted or top-dose-only effect;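 further: potency means the concentration at half of the fitted maximal effect; 0% is about no effect; scaled to a free AFC standard on each plate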
#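 Compound autofluorescence profiled at 405 nm ex/520 nm em during kinetic caspase 1 run (50 nM enzyme, 5 uM Ac-WEHD-AFC, HEPES pH 7.5, 10 mM DTT). Titration up to 57 uM; baseline from regression intercept, normalized to AFC standard curve.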
# * hit, by the source's call; i = inactive; ? = inconclusive; / = not tested or not shown; [ ] = another dose, or the depositor's remark.
SMILES,Resorufin fluor,A488 fluor,TSHR ag,A647 fluor,AID923
COc1ccc(-n2nc3ccccc3n2)cc1,i,i,6%,6.2e-09,0.1%
COC(=O)[C@@]1(Cc2ccc(F)cc2)[C@H]2c3cc(C(=O)N(C)C)n(Cc4ccc(C(F)(F)F)nc4)c3C[C@H]2CN1C(=O)c1ccccc1,/,/,?,/,0.0%
CCCOC(=O)CCNc1n[nH]c(=O)[nH]c1=O,/,/,0%,/,1.2%
COc1ccc(-c2nnc(CSc3nnc(-c4ccncc4)n3C3CCCCC3)o2)cc1OC,i,i,12%,1.7e-08,0.6%
Cc1ccc(C)c(N(C)S(=O)(=O)c2cccc3nsnc23)c1,i,i,/,1.4e-08,-0.7%
O=C(Nc1cccc(Cl)c1)N(CCCN1CCOCC1)Cc1ccccc1F,i,i,13%,3.6e-08,-1.2%
CN(CC(=O)NCc1ccco1)S(=O)(=O)c1cccc2cccnc12,/,/,2%,/,1.2%
COc1cccc(CN2CCCC(C(=O)N3CCCCC3)C2)c1OC (stereo not drawn),i,i,?,1.5e-09,2.7%
O=[N+]([O-])c1ccc(Cl)cc1Cl,/,/,?,/,0.7%
Cc1ccc(S(=O)(=O)N(C)CC(=O)Nc2ccncc2)cc1,i,i,-9%,1e-09,2.5%
O=C(CCN1C(=O)C2CC=CCC2C1=O)N1CCN(c2ccccn2)CC1 (stereo not drawn),i,i,3%,3.1e-08,0.3%
CCCOc1ccc(/C(O)=C2\C(=O)C(=O)N(CCCN(C)C)C23C(=O)N(C)c2ccccc23)cc1 (stereo not drawn),i,i,-15%,1.1e-08,1.8%
CCn1c(SCC(=O)c2ccc(C)cc2)nnc1-c1ccoc1C,i,i,13%,2.9e-08,0.9%
COCCn1c(=O)c(C)nc2cnc(Nc3cccc(OC)c3)nc21,i,i,-4%,1e-09,-0.1%
CC(C)(C)C1CCc2c(sc3c2C(=O)NC(c2ccco2)N3)C1 (stereo not drawn),i,i,-3%[11.4 µM],1.1e-08,-1.9%
Oc1ccc(C=Nc2ccc(N3CCOCC3)cc2)c(O)c1,/,/,-16%,/,2.3%
CCOC(=O)Cn1nnnc1C(C(C)C)N(Cc1cc2c(C)cc(C)cc2[nH]c1=O)C1CCCC1 (stereo not drawn),i,i,9%,1e-09,6.6%
C=CCn1cc(C(=O)OC)c(=O)c2cc(S(=O)(=O)N3CCC(C)CC3)ccc21,i,i,3%,1.1e-08,-1.3%
Cc1noc(C)c1CSCC(=O)OCC(=O)NC1CCCCC1,i,i,-3%,1.2e-08,-2.8%
COc1ccc(CN2CCNC(=O)C2CC(=O)O)cc1OC (stereo not drawn),/,/,6%,/,0.9%
O=c1c2ccccc2nc2n1CCCS2,/,/,-3%,/,1.1%
CC(NC(=O)c1ccco1)C(c1cccs1)N1CCN(c2ccccc2F)CC1 (stereo not drawn),i,i,4%,3.1e-08,0.8%
CCCn1nnnc1SCC(=O)Nc1ccc(F)cc1,i,i,0%,2.3e-08,-1.0%
Cc1noc(C)c1-c1cc(N2CCNCC2)ncn1,i,i,0%,1e-09,-0.2%
Cc1cccc(NC(=O)c2cc3ccccc3o2)c1,i,i,?,4.7e-09,0.8%
CC(C)(C)NS(=O)(=O)c1ccc(CCC(=O)O)cc1,i,i,26%,1e-09,-0.5%
CN(C)c1nc(N2CCOCC2)nc(N(c2ccccc2)c2ccccc2)n1,i,i,/,1e-09,1.4%
COCCn1c(SCC(=O)NCc2ccco2)nc2cccnc21,i,i,-3%,1.2e-08,-0.4%
Cc1oc(C(=O)O)cc1CSCc1cc(C(=O)O)c(C)o1,/,/,3%,/,6.4%
Cn1c(NCC(O)c2ccccc2)nc2c1c(=O)n(Cc1ccc(Cl)cc1)c(=O)n2C (stereo not drawn),i,i,/,4e-08,/
CCCCCS(=O)(=O)CCCCCCCCCCn1c(-c2ccc(O)cc2)c(C)c2cc(O)ccc21,/,/,15%,/,-0.8%
CCOC(=O)c1ccc(-n2c(C)nc3c(cnn3-c3ccccc3C)c2=O)cc1,/,/,9%,/,0.1%
O=C(c1cccc(COc2ccc(Cl)cc2Cl)c1)N1CCN(c2ccccn2)CC1,i,i,?,5.4e-09,0.9%
Nc1cc(C(=O)O)ccc1Nc1ccc(F)c(F)c1,i,i,-5%[11.4 µM],6.6e-09,1.1%
CCCCCOc1ccc(C(=O)N(Cc2ccco2)C2CCS(=O)(=O)C2)cc1 (stereo not drawn),i,i,?,1e-09,-1.4%
COc1cc(OC)c(NC(=O)c2ccco2)cc1Cl,i,i,-5%,2.4e-08,0.9%
COc1ccc(Cl)c(NC(=O)Cn2nnc(-c3ccccc3N)n2)c1,i,i,-15%,1e-09,-3.5%
O=C(O)Cc1cc(Cl)ccc1O,i,i,1%[11.4 µM],5.2e-08,1.8%[11.5 µM]
CCN1CCN(C(=O)c2cn(CCOC)c(=O)c3c2c2ccccc2n3C)CC1,i,i,?,1e-09,-0.1%
Cc1ccc(-c2nc(-c3cccnc3)no2)c(C)c1,i,i,18%,1.2e-08,-2.2%
Cc1cc(=O)oc2ccc(OCC(=O)N3CCc4ccccc43)cc12,i,i,/,7.4e-09,/
COc1ccc(C2CC(c3ccccc3)Nc3ncnn32)cc1 (stereo not drawn),/,/,8%,/,2.0%
CCOC(=O)C1CCN(S(=O)(=O)c2ccc(-c3nc4ccccc4s3)s2)CC1,i,i,-1%,1e-09,6.6%
Cc1ccc(-n2nc(-c3cccnc3)cc2C(=O)N2CCOCC2)c(C)c1,i,i,5%,5.8e-09,0.2%
Cc1ccc(C)c(Cn2c(=O)n(CCC(=O)NCc3ccco3)c(=O)c3ccccc32)c1,i,i,-3%,2.2e-08,0.3%

# 4 records drawn at random from those above, as already listed:
SMILES,Resorufin fluor,A488 fluor,TSHR ag,A647 fluor,AID923
O=C(O)Cc1cc(Cl)ccc1O,i,i,1%[11.4 µM],5.2e-08,1.8%[11.5 µM]
COc1cc(OC)c(NC(=O)c2ccco2)cc1Cl,i,i,-5%,2.4e-08,0.9%
C=CCn1cc(C(=O)OC)c(=O)c2cc(S(=O)(=O)N3CCC(C)CC3)ccc21,i,i,3%,1.1e-08,-1.3%
Cn1c(NCC(O)c2ccccc2)nc2c1c(=O)n(Cc1ccc(Cl)cc1)c(=O)n2C (stereo not drawn),i,i,/,4e-08,/

# Going on with the list.
SMILES,Resorufin fluor,A488 fluor,TSHR ag,A647 fluor,AID923
O=C(c1ccc(Cl)c(Cl)c1)N1CCOCC1,i,i,-7%,1e-09,0.1%
CN(c1cccc(NC(=O)Cc2ccccc2)c1)S(C)(=O)=O,i,i,2%,3.2e-08,-1.1%
CN(C)c1[nH]c(=O)c(C#N)c2c1CCN2Cc1ccccc1,i,i,-19%,3.2e-08,3.8%
Cc1cc(C)nc(SCc2nnc(SCC(=O)Nc3cc(C(F)(F)F)ccc3Cl)o2)n1,i,i,?,3.5e-09,1.2%
CC1Cc2ccccc2N1C(=O)c1ccc2c(c1)nnn2C (stereo not drawn),i,i,-4%,2.4e-08,-1.0%
Cc1nnc(SCC(=O)N2CCN(S(=O)(=O)c3ccc(Cl)cc3)CC2)[nH]c1=O,i,i,3%,2.5e-08,1.0%
CCOc1ccccc1NC(=O)c1ccccc1-c1nc(-c2ccccc2)no1,i,i,?,5.1e-09,-0.2%
COc1ccc(CNC(=O)CSc2ncn[nH]2)cc1,i,i,3%,1e-09,0.8%
Cc1cc(C(=O)NCc2ccccc2F)cs1,i,i,3%,4.2e-09,1.5%
CCOC(=O)C1Cc2c([nH]c3ccccc23)C(C)N1 (stereo not drawn),i,i,/,2.3e-08,/
COc1ccc(-c2cc(C(=O)NCc3ccccc3)no2)cc1OC,i,i,3%[11.4 µM],1e-09,-1.1%
O=C(NCC(=O)N(Cc1cccs1)C(C(=O)NC1CCCC1)c1ccncc1)c1ccco1 (stereo not drawn),i,i,-9%,5.1e-08,1.5%
CCOc1ccc(-c2nc(C#N)c(N3CCN(C)CC3)o2)cc1,i,i,20%,1e-09,-1.0%
COc1ccccc1OCCn1c(C(C)O)nc2ccccc21 (stereo not drawn),i,i,3%,2.3e-08,-2.1%
Clc1ccc(CSc2nnc(-c3ccncc3)o2)cc1,i,i,17%,3.5e-09,-2.4%
CCn1nnc(NC(=O)c2cc3ccccc3o2)n1,i,i,4%,1e-09,0.6%
COc1cc(C2NC(=O)NC(C)=C2C(=O)OC(C)(C)C)ccc1OCC(=O)O (stereo not drawn),i,i,3%,4.5e-09,3.0%
COC(=O)c1ccc(OC(=O)c2ccco2)cc1,i,i,-5%,1e-08,-2.7%
O=C(CCc1nc2ccccc2[nH]1)Nc1ccccc1,i,i,-1%,1.8e-08,-2.4%
COC(=O)[C@@]1(Cc2ccc(OC)cc2)[C@H]2c3cc(C(=O)N4CCCC4)n(Cc4ccc(OC(F)(F)F)cc4)c3C[C@H]2CN1C(=O)c1ccccc1,/,/,?,/,-0.7%
CCCCSc1nnc([C@@H]2CCCN2C(=O)OC(C)(C)C)o1,i,i,9%,1e-09,1.5%
CCOc1ccc(-c2nnc3sc(-c4ccccc4OC)nn23)cc1,i,i,/,1.5e-08,/
Cc1cc(C)n(CC(=O)n2c3ccccc3c3ccccc32)n1,/,/,2%,/,-0.2%
COC(=O)c1cc(=O)n(C2CC2)c(=NC2CC2)s1,i,i,5%,2.8e-09,0.2%
CCCCNC(=O)c1ccc(CS(=O)(=O)c2ccc(OC)cc2)o1,/,/,4%,/,-0.3%
Cc1cc(NC(=O)c2cccc(S(=O)(=O)N3CCOCC3)c2)c2ccccc2n1,i,i,13%,4.7e-09,-0.4%
COc1ccc2cc(CCNC(=O)c3ccc(Br)o3)c(=O)[nH]c2c1,/,/,?,/,-1.9%
O=C1c2ccccc2NC2CCCCC12 (stereo not drawn),i,i,?,8.4e-09,-0.2%
O=C(Cn1c(-c2ccccc2)noc1=O)Nc1ccc(N2CCCCCC2)cc1,i,i,?,1.3e-08,-3.4%
Cc1nc2nc(-c3ccccc3)nn2c(C)c1Cl,i,i,10%,6.6e-09,1.8%

# As a short view, part of the list above.
SMILES,Resorufin fluor,A488 fluor,TSHR ag,A647 fluor,AID923
Cc1noc(C)c1CSCC(=O)OCC(=O)NC1CCCCC1,i,i,-3%,1.2e-08,-2.8%
COc1ccc(CN2CCNC(=O)C2CC(=O)O)cc1OC (stereo not drawn),/,/,6%,/,0.9%

# The list continues:
SMILES,Resorufin fluor,A488 fluor,TSHR ag,A647 fluor,AID923
CC(C)(C)n1nc(C2CC2)cc1NC(=O)Nc1ccc(Cl)cc1,i,i,3%[11.4 µM],1e-09,-1.4%[11.5 µM]
Cc1cc(S(=O)(=O)NCC(C)C)ccc1OCC(=O)N1CCOCC1,i,i,27%,1e-09,0.3%
Cc1csc(SCCn2c(N3CCCC3)nc3c2c(=O)[nH]c(=O)n3C)n1,i,i,-8%,4e-09,3.4%
CCOC(=O)CSC1=Nc2ccccc2C2=NC(CC(=O)NCc3ccccc3)C(=O)N12 (stereo not drawn),i,i,5%,1.8e-09,-0.3%
COc1ccc(-c2nc(CS(=O)CC(=O)N3CCCC3)c(C)o2)cc1 (stereo not drawn),/,/,8%,/,1.7%
O=C(NCc1ccccc1)c1ccc(OC2CSC2)cc1,i,i,0%,1e-09,-0.1%
CCc1cc2c(=O)c(-c3ccc4c(c3)OCCO4)coc2cc1OC(=O)c1ccco1,i,i,?,1e-09,1.3%
C[C@@H]1O[C@H](O[C@@H]2[C@@H](Oc3cc(O)c4c(c3)O[C@H](c3ccc(O)cc3)CC4=O)O[C@@H](CO)[C@@H](O)[C@H]2O)[C@@H](O)[C@H](O)[C@@H]1O,i,i,-11%[25.6 µM],3e-08,0.0%[25.7 µM]
C[C@@H]1C(=O)O[C@@H]2C[C@]34[C@H]5C[C@@H](C(C)(C)C)[C@@]36[C@@H](OC(=O)[C@@H]6O)O[C@@]4(C(=O)O5)[C@@]12O,i,i,-21%[25.6 µM],1e-09,-2.7%[25.7 µM]
CCCS(=O)(=O)c1nc(S(=O)(=O)c2ccc(C)cc2)c(NCCCN2CCOCC2)s1,/,/,18%,/,-1.0%

# These rows are one share of the data (hit frequency here may not be typical).
